Ecoli rRNA inh: inhibitors of bacterial rRNA selective over humanized ribosomes. E. coli WT GFP vs humanized-ribosome RFP mutants, fluorescence, 24 h; stronger effect = lower value; DMSO median 0, no signal -100. GFP signal change (wild-type ribosome), % (concentration not given with the values). actives 1.6% (n = 350,000). AID 720706;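 active = significant combined selectivity score with lowered wild-type GFP, culture density cut under 30%, mutant RFP and density less affected; inactive = any of these conditions unmet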; note: one replicate is shown; some compounds called inactive have numbers as strong as hits
Ecoli rRNA inh OD600: also measured in Ecoli rRNA inh; calls as there; OD600 change, %; measured here: OD600 growth;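 optical density of the mix in the first replicate; 0 = DMSO median and -100 = no signal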
Ecoli rRNA inh RFP: further read-out of Ecoli rRNA inh, marked with its call; RFP signal change, %; measured here: RFP humanized mutant strains;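 first replicate; 0 = DMSO median and -100 = no signal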
Active calls of the source: *; & = joins results of further samples. Not all compounds are listed. The share of hits here may be higher or lower than overall.

SMILES	Ecoli rRNA inh	Ecoli rRNA inh OD600	Ecoli rRNA inh RFP
C[C@@H]1CN([C@@H](C)CO)S(=O)(=O)c2ccc(C3=CCCC3)cc2O[C@@H]1CN(C)CC1CCOCC1	6	-1	1.4
N#C[C@@H]1[C@@H](c2ccccc2-c2cccc(F)c2)[C@H](CO)N1C(=O)NC1CCCC1	-11	-42	-2.5
C/C=C/c1ccc([C@H]2[C@@H](CO)N(C(=O)CN(C)C)C23CN(C(=O)C2CCCC2)C3)cc1	4	-3	3.9
O=C1CN(S(=O)(=O)c2ccccc2)C[C@H]2[C@H](c3ccc(C4=CCCC4)cc3)[C@@H](CO)N12	3	18	-5.9
COc1cccc(-c2cnc3c(c2)C(=O)N([C@H](C)CO)C[C@H](C)[C@@H](CN(C)CC2CCCC2)O3)c1	2	-2	0.5
COCC#Cc1ccc([C@H]2[C@H]3CN(C(=O)Nc4cc(F)ccc4F)CCCCN3[C@H]2CO)cc1	-1	4	-1.6
COc1ccc(-c2ccc(C3[C@@H]4CN(S(=O)(=O)c5cccc(C)c5)C[C@H]3N4)cc2)cc1 (stereo partly drawn)	1&-60	2&-78	1.4&-17
CC(=O)N1[C@@H]2CN(CC(F)(F)F)C[C@H]1C2c1ccccc1 (stereo partly drawn)	-1&-2	1&0	-0.5&-1.2
CCCN1C[C@H](C)[C@H](OC)CN(C)C(=O)c2cc(NC(=O)c3ccno3)ccc2OC[C@H]1C	4	3	-1.1
O=C(CC1CC1)N1CC(=O)N2[C@@H](CO)[C@@H](c3ccc(C#Cc4ccccc4)cc3)[C@@H]2C1	7	-6	5.5
C[C@@H]1CCCCO[C@@H](CN(C)Cc2ccc3c(c2)OCO3)[C@H](C)CN([C@H](C)CO)C(=O)c2cc(NS(=O)(=O)c3ccc(F)cc3)ccc2O1	5	-7	2.7
C[C@@H]1CCCCO[C@H](CN(C)C)[C@H](C)CN([C@H](C)CO)C(=O)c2cc(NC(=O)Nc3ccc(C(F)(F)F)cc3)ccc2O1	4	2	1.3
CN1C(=O)c2cc(NS(=O)(=O)c3ccc(Cl)cc3)ccc2OC[C@@H]2O[C@@H](CC(=O)N3CCc4ccccc4C3)CC[C@@H]21	-4	-4	3.9
CCN1CC(=O)N2[C@H](C1)[C@@H](c1ccc(-c3ccccc3F)cc1)[C@@H]2CO	-1	14	-3.1
CCC(=O)Nc1ccc2c(c1)C(=O)N(C)[C@@H]1CC[C@@H](CC(=O)N3CCc4ccccc4C3)O[C@H]1CO2	4	-7	-1.8
C[C@@H]1CCCCO[C@H](CN(C)C(=O)C2CCCCC2)[C@H](C)CN([C@H](C)CO)C(=O)c2cc(NC(=O)c3ccncc3)ccc2O1	-3	-4	0.7
C[C@@H]1CN([C@@H](C)CO)C(=O)c2cc(NC(=O)Nc3ccc(C(F)(F)F)cc3)ccc2O[C@@H](C)CCCCO[C@H]1CN(C)C	-53	-76	-14
C[C@@H]1CN([C@@H](C)CO)C(=O)c2cc(N(C)C)ccc2O[C@H]1CN(C)C(=O)Nc1ccccc1	5	10	1.6
CCCC(=O)Nc1ccc2c(c1)C(=O)N(C)C[C@H](OC)[C@H](C)CN(Cc1ccncc1)[C@@H](C)CO2	-2	-3	-2.5
C[C@@H]1CN([C@@H](C)CO)S(=O)(=O)c2ccc(C3=CCCC3)cc2O[C@@H]1CN(C)C(=O)c1cnccn1	-2	-15	-3.1
COc1ccc2c3c([nH]c2c1)[C@H](CO)NCC31CCN(C(=O)Cc2ccncc2)CC1	-2	-3	0.5
C[C@@H]1CN([C@@H](C)CO)S(=O)(=O)c2ccc(Br)cc2O[C@@H]1CN(C)CC1CC1	5	11	2.3
N#Cc1ccc(-c2ccc3c(c2)[C@H]2[C@H](CCN2C(=O)C2CCC2)[C@@H](CO)N3)cc1	1	-30	1.2
CO[C@H]1CN(C)C(=O)c2cc(NC(=O)c3ccccc3F)ccc2OC[C@H](C)N(CC2CCOCC2)C[C@H]1C	-1	-5	-0.8
COc1ccc(-c2ccc(C3[C@H]4CNC[C@@H]3N4S(=O)(=O)c3cccc(Cl)c3)cc2)cc1 (stereo partly drawn)	-56&-12	-76&-53	-15&18
O=C(C[C@H]1CC[C@@H](NC(=O)c2ccncc2)[C@H](CO)O1)Nc1ccc(-c2ccccc2)cc1	-1	-12	-8.8
COc1cccc(-c2ccc3c(c2)[C@@H]2[C@@H](CCN2C(=O)C2CCCC2)[C@@H](CO)N3)c1	-5	-12	15
C[C@H]1CN([C@@H](C)CO)C(=O)c2cc(-c3ccc(F)cc3)cnc2O[C@@H]1CN(C)Cc1ccc(F)cc1	1	9	-1.6
CCC(=O)Nc1ccc2c(c1)C(=O)N(C)[C@H]1CC[C@@H](CC(=O)Nc3cccc(OC)c3)O[C@H]1CO2	0	4	1.3
CCCN(C)C[C@H]1Oc2cc(C#CC3CCCCC3)ccc2S(=O)(=O)N([C@H](C)CO)C[C@H]1C	5	-10	0.1
O=C(C[C@@H]1C=C[C@H](NC(=O)CN2CCOCC2)[C@@H](CO)O1)NCCc1ccncc1	2	-4	0.7
CC(=O)N1[C@@H]2c3ccc(C4=CCCC4)c(=O)n3C[C@H]1[C@H](CO)[C@H]2C(=O)N[C@@H](C)c1ccccc1	-4	1	-1.3
C[C@@H]1CN([C@@H](C)CO)C(=O)CCCn2cc(nn2)CO[C@@H]1CN(C)Cc1ccc(Cl)c(Cl)c1	-6	-8	1.1
Cc1cccc(-c2ccc([C@@H]3[C@@H](CO)N4C(=O)CN(C(=O)c5cccnc5)C[C@H]34)cc2)c1	1	2	-1.1
CNC[C@H]1Oc2ncccc2C(=O)N(C)C[C@H]1C	2	3	0.1
O=C(Cc1cccnc1)N1CC(=O)N2[C@H](CO)[C@@H](c3ccc(-c4cccc(F)c4)cc3)[C@@H]2C1	4	5	0.9
COCC(=O)Nc1ccc2c(c1)OC[C@H](C)NC[C@H](C)[C@@H](OC)CN(C)C2=O	3	6	0.5
CNC[C@@H]1OCc2ccccc2-c2c(n(C)c3ccccc23)C(=O)N([C@@H](C)CO)C[C@H]1C	3	7	-0.7
CCCNC(=O)N1C[C@@H](C)[C@@H](OC)CN(C)C(=O)c2cc(NC(=O)C3CCC3)ccc2OC[C@H]1C	2	4	-2.0
Cc1ccc(S(=O)(=O)Nc2ccc3c(c2)CC(=O)N([C@H](C)CO)C[C@H](C)[C@@H](CN(C)Cc2ccc(C(F)(F)F)cc2)O3)cc1	0	-4	3.5
CC=Cc1ccc2n(c1=O)C[C@H]1[C@H](CO)[C@@H](C(=O)NCCc3ccncc3)[C@@H]2N1CCC(F)(F)F (mixture of isomers)	4	-4	0.3
CO[C@@H]1CN(C)C(=O)c2ccc(NC(=O)c3ccc(-c4ccccc4)cc3)cc2OC[C@H](C)NC[C@H]1C	-6	6	14
O=C(c1cnccn1)N1CC(=O)N2[C@H](CO)[C@@H](c3ccc(C4=CCCCC4)cc3)[C@@H]2C1	3	-14	14
C/C=C/c1ccc([C@H]2[C@@H](CO)N(C(=O)C3CC3)[C@H]2CNC(=O)CN(C)C)cc1	3	3	-1.4
COc1ccc(S(=O)(=O)N2[C@@H]3CNC[C@H]2C3c2ccc(-c3ccccc3F)cc2)cc1 (stereo partly drawn)	2	10	-2.6
CO[C@H]1CN(C)C(=O)c2cc(NC(=O)NC(C)C)ccc2OC[C@H](C)N(Cc2cncnc2)C[C@@H]1C	2	-1	-2.6
C[C@@H]1CN([C@@H](C)CO)C(=O)c2cc(-c3cccc(F)c3)cnc2O[C@@H]1CN(C)Cc1cccnc1	-2	-2	0.6
CC(C)CC#Cc1cnc2c(c1)C(=O)N([C@@H](C)CO)C[C@@H](C)[C@H](CN(C)C(=O)c1cccc(F)c1)O2	-1	-7	3.0
COc1ccc(C#Cc2ccc3c(c2)[C@H]2[C@H](CCN2Cc2ccncc2)[C@H](CO)N3)cc1	-1	10	6.3
O=C(Nc1ccccc1)N1C[C@@H]2N[C@H](C1)[C@@H]2c1ccc(/C=C/c2ccccc2)cc1	-25*	-14*	-0.8*
COc1ccc(CN(C)C[C@@H]2OCCCC[C@H](C)Oc3ccc(NC(=O)c4ccccc4)cc3C(=O)N([C@@H](C)CO)C[C@H]2C)cc1	-2	-4	6.2
COc1ccc2c3c([nH]c2c1)[C@H](CO)N(C(=O)CN(C)C)CC31CN(Cc2ccncc2)C1	-1	5	-2.3
C[C@@H]1CN([C@H](C)CO)C(=O)c2cc(NC(=O)CCCN(C)C)ccc2O[C@@H](C)CCCCO[C@H]1CN(C)C(=O)CCCN(C)C	4	6	-2.1
C/C=C/c1ccc2c(c1)O[C@@H](CN(C)C(=O)C1CCC1)[C@H](C)CN([C@H](C)CO)S2(=O)=O	-1	17	-5.5
O=C(C[C@@H]1C[C@H]2c3cc(NC(=O)Cc4ccncc4)ccc3O[C@H]2[C@@H](CO)O1)NCc1cccnc1	1	3	-1.3
CCCC#Cc1ccc([C@@H]2[C@@H](CO)N3C(=O)CN(C(=O)c4cccnc4)C[C@@H]23)cc1	1	1	1.2
O=C(NC[C@@H]1[C@H](c2ccccc2)[C@H](CO)N1C(=O)Cc1cccnc1)C1CCC1	2	1	0.9
O=C1N[C@H](c2ccccc2)COCc2cn(nn2)CC[C@H](Cc2ccc(C(F)(F)F)cc2)C(=O)N[C@H](c2ccccc2)COCc2cn(nn2)CC[C@@H]1Cc1ccc(C(F)(F)F)cc1	-7	-26	-2.3
CCCC#Cc1ccc([C@H]2[C@H]3CN(C(=O)Cc4cccnc4)CC(=O)N3[C@H]2CO)cc1	0	10	2.0
COc1ccc2c3c([nH]c2c1)[C@H](CO)N(Cc1ccncc1)CC31CN(C(=O)c2cccnc2)C1	0	14	-1.8
Next results follow:
SMILES	Ecoli rRNA inh	Ecoli rRNA inh OD600	Ecoli rRNA inh RFP
CCN1CC(=O)N2[C@H](CO)[C@H](c3ccc(Br)cc3)[C@@H]2C1	5	9	-1.8
Cc1ccc(CN2CC(=O)N3[C@@H](CO)[C@@H](c4ccc(Br)cc4)[C@@H]3C2)cc1	2	-3	3.1
COCC(=O)Nc1ccc2c(c1)OC[C@H](C)N(C(C)=O)C[C@H](C)[C@H](OC)CN(C)C2=O	0	6	1.4
CC(=O)N(C)C[C@H]1Oc2ccccc2CC(=O)N(C)C[C@@H]1C	1	2	2.9
CNC[C@@H]1Oc2cc(C#Cc3ccncc3)ccc2S(=O)(=O)N([C@H](C)CO)C[C@@H]1C	3	5	-0.3
O=C(C[C@@H]1CC[C@@H](NC(=O)Nc2ccc3c(c2)OCO3)[C@@H](CO)O1)NCCCN1CCOCC1	2	4	-0.3
O=C(Nc1cc(F)ccc1F)N[C@H]1CC[C@@H](CCn2cc(C3CCCC3)nn2)O[C@@H]1CO	-5	-6	-0.4
COc1ccc2c3c([nH]c2c1)[C@H](CO)N(C(=O)c1ccc(F)cc1)CC31CN(C(=O)Nc2ccc(F)cc2)C1	-6	-12	-0.1
C[C@H](CO)N1C[C@H](C)[C@H](CN(C)Cc2ccncc2)Oc2ncc(-c3ccc(F)cc3)cc2C1=O	-3	2	-2.1
C[C@H](CO)N1C[C@H](C)[C@H](CN(C)C(=O)Nc2ccc3c(c2)OCO3)Oc2ccc(NS(=O)(=O)c3ccc(F)cc3)cc2CC1=O	2	-1	0.4
CCCC#Cc1ccc2c(c1)O[C@H](CN(C)C(=O)C1CCCCC1)[C@@H](C)CN([C@@H](C)CO)S2(=O)=O	-5	-23	4.5
C[C@H](CO)N1C[C@H](C)[C@@H](CN(C)C(=O)Nc2ccc(C(F)(F)F)cc2)OCCCC[C@H](C)Oc2ccc(N(C)C)cc2C1=O	-4	-6	0.6
O=C(C1CCCC1)N1CC[C@@H]2[C@@H](CO)Nc3ccc(-c4cccc(F)c4)cc3[C@@H]21	-47	-73	-8.4
O=C(Nc1ccc2c(c1)[C@@H]1C[C@H](CC(=O)N3CCCCC3)O[C@H](CO)[C@@H]1O2)Nc1ccccc1F	-3	-9	3.3
COc1ccc2c3c(n(C)c2c1)[C@@H](CO)N(Cc1ccccc1F)CC31CCN(C(=O)C2CCOCC2)CC1	4	5	-2.8
COCC(=O)Nc1ccc2c(c1)C(=O)N(C)C[C@@H](OC)[C@@H](C)CN[C@H](C)CO2	3	2	-2.6
Cc1ccc(-c2ccc([C@@H]3[C@H](CO)N4C(=O)CN(C(=O)c5ccccc5)C[C@@H]34)cc2)cc1	-2	-14	0.7

An excerpt of these results, as comma-separated lines.
Structure,Ecoli rRNA inh,Ecoli rRNA inh OD600,Ecoli rRNA inh RFP
COCC(=O)Nc1ccc2c(c1)C(=O)N(C)C[C@@H](OC)[C@@H](C)CN[C@H](C)CO2,3,2,-2.6
C[C@H](CO)N1C[C@H](C)[C@@H](CN(C)C(=O)Nc2ccc(C(F)(F)F)cc2)OCCCC[C@H](C)Oc2ccc(N(C)C)cc2C1=O,-4,-6,0.6
O=C(Nc1ccc2c(c1)[C@@H]1C[C@H](CC(=O)N3CCCCC3)O[C@H](CO)[C@@H]1O2)Nc1ccccc1F,-3,-9,3.3
CC(=O)N(C)C[C@H]1Oc2ccccc2CC(=O)N(C)C[C@@H]1C,1,2,2.9

Record cards (already shown). Screens in order: Ecoli rRNA inh	Ecoli rRNA inh OD600	Ecoli rRNA inh RFP
Listed for CC(C)CC#Cc1cnc2c(c1)C(=O)N([C@@H](C)CO)C[C@@H](C)[C@H](CN(C)C(=O)c1cccc(F)c1)O2 : -1	-7	3.0
Listed for COc1ccc(-c2ccc(C3[C@H]4CNC[C@@H]3N4S(=O)(=O)c3cccc(Cl)c3)cc2)cc1 (stereo partly drawn) : -56&-12	-76&-53	-15&18
Listed for CCCC#Cc1ccc2c(c1)O[C@H](CN(C)C(=O)C1CCCCC1)[C@@H](C)CN([C@@H](C)CO)S2(=O)=O : -5	-23	4.5

Just Ecoli rRNA inh OD600 and Ecoli rRNA inh RFP, for some of the entries so far:
canonical_smiles | Ecoli rRNA inh OD600 | Ecoli rRNA inh RFP
Cc1ccc(CN2CC(=O)N3[C@@H](CO)[C@@H](c4ccc(Br)cc4)[C@@H]3C2)cc1 | -3 | 3.1
COCC(=O)Nc1ccc2c(c1)OC[C@H](C)N(C(C)=O)C[C@H](C)[C@H](OC)CN(C)C2=O | 6 | 1.4

High-throughput results deposited in PubChem BioAssay by Broad Institute.
